High-throughput results: PubChem BioAssay, several laboratories
Mtb bLac sens = beta-lactam sensitization of Mtb H37Rv; M. tuberculosis H37Rv growth with meropenem, percent inhibition; hits of this screen are not shown here; inhibition, % at 25 µM; actives 0.27% (n = 330,000);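 active = about 74% or more and at least 40 points above the plate without the antibiotic, then above 30% in a dose series; inconclusive = first-round hits that could not be retested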;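 also: growth measured after seven days incubation then overnight dye step; 0% = bacteria only wells and 100% = bacteria with antibiotic; twin plates without the antibiotic show which effects depend on it; some results filed as inactive read as strong as hits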
RecA intein inh = blocks M. tuberculosis RecA intein splicing. P9WHJ3. cell-free RecA intein splicing, fluorescence. inhibition, %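 (about 9 µM by stock and volumes)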. actives 0.75% (n = 290,000); in the data active = inhibition above about 30%; inconclusive = no clear call, values can overlap the other calls;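 also: 0% = vehicle wells and 100% = reference inhibitor control wells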
Target sequence (P9WHJ3 whole entry, looked up): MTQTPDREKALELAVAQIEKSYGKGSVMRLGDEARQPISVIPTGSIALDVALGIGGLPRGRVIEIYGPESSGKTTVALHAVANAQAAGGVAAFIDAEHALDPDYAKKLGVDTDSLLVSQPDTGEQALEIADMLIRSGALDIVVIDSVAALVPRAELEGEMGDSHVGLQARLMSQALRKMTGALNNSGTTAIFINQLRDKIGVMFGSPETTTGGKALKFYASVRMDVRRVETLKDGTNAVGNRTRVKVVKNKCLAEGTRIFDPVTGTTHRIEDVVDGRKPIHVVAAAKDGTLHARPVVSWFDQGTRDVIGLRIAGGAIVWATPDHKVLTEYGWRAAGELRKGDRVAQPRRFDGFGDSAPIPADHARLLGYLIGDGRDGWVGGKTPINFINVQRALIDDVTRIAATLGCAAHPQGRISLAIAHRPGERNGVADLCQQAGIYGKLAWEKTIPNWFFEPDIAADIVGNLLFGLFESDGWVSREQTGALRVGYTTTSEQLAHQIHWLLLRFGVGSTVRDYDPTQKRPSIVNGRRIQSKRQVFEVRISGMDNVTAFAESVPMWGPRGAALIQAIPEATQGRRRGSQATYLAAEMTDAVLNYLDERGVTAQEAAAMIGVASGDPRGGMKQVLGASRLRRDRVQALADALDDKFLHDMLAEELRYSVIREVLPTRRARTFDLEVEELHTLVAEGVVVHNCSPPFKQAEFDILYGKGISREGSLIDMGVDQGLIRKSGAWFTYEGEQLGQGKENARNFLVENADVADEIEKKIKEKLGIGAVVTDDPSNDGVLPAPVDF
Arbovirus inh = antivirals against arbovirus infection; actives 0.37% (n = 200,000); inhibition, % at 10 µM; AID 1251; arbovirus infection cell-based antiviral screen;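 active = inhibition from about 30%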;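 also: bluetongue infection of BSR cells; cell survival read as ATP light after 72 h; 0% = infected wells without compound and 100% = uninfected wells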
Mtb H37Rv = M. tuberculosis H37Rv growth inhibitors, H37Rv strain (AID 1626); actives 0.95% (n = 220,000); inhibition, % at 10 µM, or IC50 in µM where a hit was titrated; M. tuberculosis H37Rv growth inhibition; higher % means a stronger effect;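 active = confirmed in a dose series; inconclusive = inhibition above 80% but not taken into the dose series; inactive = below 80% or under 30% at every dose of the series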;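 also: bacteria incubated seven days before Alamar blue readout; 0% = bacteria only wells and 100% = bacteria with antibiotic wells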
YopH PTP inh = inhibitors of Yersinia enterocolitica YopH tyrosine phosphatase; fluorescence Ex485/Em525; inhibition, %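 (about 10 µM by stock and volumes)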; actives 0.16% (n = 140,000); AID 898;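 active = inhibition of 50% or more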;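 also: controls were vehicle for no effect and minimum signal wells for full effect; inactives centre near -20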
Arbovirus inh repeat = second read-out of Arbovirus inh, no call of its own (marks repeat the call); inhibition, %; measured here: 10K subset replicate screen; many hits read low in the repeat;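 first of two repeat runs on a subset; 0% = infected and 100% = uninfected wells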
Starred values were filed as active, the others as inactive; u = inconclusive; x = no result given. An excerpt, so the mix of outcomes need not match the whole.

SMILES | Mtb bLac sens | RecA intein inh | Arbovirus inh | Mtb H37Rv | YopH PTP inh | others
Cc1ccc(Cl)cc1NC(=O)[C@@H]1CCC(=O)N1C1OC(=O)c2ccccc21 (stereo not given in full) | -6 | -1.0 | x | x | x
Cc1onc(-c2c(Cl)cccc2Cl)c1C(=O)NCc1ccco1 | -2 | 0.8 | 5 | -2% | -29
Cc1cc(O)cc(C)c1Cl | -6 | -3.7 | x | -9% | x
COc1ccccc1OCC(=O)Nc1ccc(Cl)cc1 | -7 | -1.8 | -22 | -6% | -18
CCCc1nnc(NC(=O)CCC(=O)NC2CCCc3ccccc32)s1 (stereo not given) | 0 | 1.4 | -12 | -4% | -43
Cc1cc(C(=O)NCCCN2CCN(C3CCCCC3)CC2)n(-c2ccccc2)n1 | -4 | -1.0 | -3 | 12% | -6
COc1ccc(/C=N/n2cnc3c([nH]c4ccc(C)cc43)c2=O)cc1CN1CCCC1 | -5 | 2.3 | x | -6% | x
O=C(C1CC(=O)N(c2ccc3c(c2)OCCO3)C1)N1CCCC(C(F)(F)F)C1 (stereo not given) | 2 | 0.3 | x | x | x
COc1cc(-c2cc(-c3ccccc3)nc(SCC(=O)O)c2C#N)cc(OC)c1OC | 4 | -2.1 | x | x | x
CC(C)(C)c1cc(CCC(=O)Nc2ccncc2)cc(C(C)(C)C)c1O | 7 | 2.0 | x | x | x
O=C(Cc1ccc(Cl)cc1)Nc1ncc([N+](=O)[O-])s1 | x | 22 | 22 | 9% | x
Cc1ccccc1CC(=O)Nc1ccc2c(C)cc(=O)oc2c1 | 4 | -1.2 | x | x | x
CC(C)C(C)NC(=O)COc1ccc(Sc2ccc(OCC(=O)NC(C)C(C)C)cc2)cc1 (stereo not given) | -6 | 2.9 | -7 | 2% | -16
CC(C)(C)Cn1c(=O)[nH]c(=O)c2cc([N+](=O)[O-])cnc21 | 3 | -14 | 8 | 5% | -5
N#CC1=C(N)Oc2n[nH]c(-c3cccs3)c2C1c1ccoc1 (stereo not given) | 2 | 85* | -5 | -8% | -11
Cc1cccc(NC(=O)NN2CCN(C)CC2)c1C | 1 | -0.6 | x | x | x
CCN1C(=O)NC(=O)/C(=C\c2ccc(N3CCOCC3)cc2OC)C1=O | 9 | -0.6 | 2 | x | -20
O=C(COc1ccccc1Cl)OCC(=O)N1CCN(S(=O)(=O)c2ccccc2)CC1 | 2 | 0.7 | 6 | 8% | 0
CCc1ccc(-c2nc(CSCC(=O)N3CCN(c4ccccn4)CC3)c(C)o2)cc1 | 8 | 2.0 | 2 | 20% | -15
COc1ccc(CCNc2ccc(C(CC(N)=O)NC(=O)c3cc(C)cc(C)c3)cc2[N+](=O)[O-])cc1 (stereo not given) | 3 | -1.3 | x | x | x
NS(=O)(=O)c1ccc(CNC(=O)Cc2ccccc2[N+](=O)[O-])cc1 | -5 | -6.7 | x | x | x
O=C1CC(SC(=Nc2ccccc2)Nc2ccccc2)C(=O)N1c1ccc(Cl)cc1 (stereo not given) | -7 | 2.6 | 3 | 8% | -47
CCOc1ccc(N2CC(=O)Nc3ccccc3NCC2=O)cc1 | 98 | 7.9 | -17 | 13µM* | -26
Clc1ccc(-c2nc3ccc(Cl)cn3c2CN2CCOCC2)cc1 | -5 | 1.3 | -8 | 12% | -17
CC(C)OC(=O)c1cc2c(ccn2-c2ccc(F)cc2)n1CC(=O)N1CCN(C(=O)c2ccco2)CC1 | -1 | 5.1 | x | x | x
O=[N+]([O-])c1ccc(Nc2ccccc2)cc1 | 2 | 4.7 | -2 | 6% | -32
NC(=O)C1CCCN(S(=O)(=O)c2ccc(Br)cc2)C1 (stereo not given) | -10 | -2.0 | -5 | -6% | 2
CC(=O)Nc1cccc(C(=O)Nc2ccccc2C(=O)O)c1 | 4 | -1.2 | 18 | -2% | 4
Cc1ccc(NC(=O)Cc2nnc(SCC(=O)NC3CCCC3)n2C)c(C)c1 | -8 | 2.4 | x | x | x
COc1ccc(/C(C)=N/NC(=O)CNC(=O)c2ccncc2)c(OC)c1 | -2 | -0.7 | x | x | x
CSC(=Nc1ccccc1)C(C#N)c1nc2ccccc2[nH]1 (stereo not given) | -3 | 2.5 | x | 4% | x
COc1cc(C(=O)OC(C)C(=O)N2CCc3ccccc3C2)ccc1OCC(=O)N1CCOCC1 (stereo not given) | 5 | 3.6 | -4 | -5% | -39
CCOc1ccc(NC(=O)c2ccc3c(SCC(=O)O)c4c(nc3c2)CCCC4)cc1 | 55 | 1.4 | -2 | 5% | x
COc1ccccc1C(=O)CSc1nnc(-c2ccco2)o1 | -4 | 1.3 | 2 | -5% | x
CC1CCCN(C(=O)c2ccc(NS(=O)(=O)c3cccc([N+](=O)[O-])c3)cc2)C1 (stereo not given) | 2 | -0.3 | x | x | x
CN(C)S(=O)(=O)c1ccc(C(=O)OCCCN=C2NS(=O)(=O)c3ccccc32)cc1 | 5 | x | 1 | -18% | -10 | Arbovirus inh repeat=4
CN(CC1CCCO1)S(=O)(=O)c1ccc(C(=O)Nc2ccc(F)cc2)cc1 (stereo not given) | u | 5.0 | x | x | x
CCN1C(=O)/C(=C/C=C2\C=CN(CC)c3ccccc32)SC1=S | 48 | 4.1 | 8 | 7% | 35
CC12CC(NC(=O)N1c1ccc(C(=O)N3CCN(c4ccccn4)CC3)cc1)c1ccccc1O2 (stereo not given) | x | x | 0 | -7% | 21
CCOc1ccc(/C=N/NC2=NCCCCC2)cc1 | 0 | -1.0 | -4 | 6% | x
COc1ccccc1N(C)S(=O)(=O)c1ccc(C(=O)Nc2ccc3nc(C)sc3c2)cc1 | 94 | 6.2 | -12 | 80% | -23
N#CC1=C(N)OC2=C(C(=O)CCC2)C1c1cc2c(cc1Br)OCO2 (stereo not given) | -1 | 1.3 | x | x | x
Cc1nc2ccccc2c(=O)n1/N=C/c1cccnc1 | 0 | 3.9 | 11 | -7% | -17
CCc1ccccc1N(CC(=O)NC1CCCC1)C(=O)CNC(=O)c1cccs1 | -7 | 3.9 | x | x | x
Cc1cc(C)c(C(=O)N2CCCC(N3CCN(c4cccc(C(F)(F)F)c4)CC3)C2)o1 (stereo not given) | 47 | 10.0 | x | x | x
COC(=O)CC1=NN(c2ccccc2)C(=O)C1 | 0 | 77* | 25 | 4% | x
COc1ccc(CCNC(=O)C2CCN(S(=O)(=O)c3ccc(OC)c(OC)c3)CC2)cc1OC | 3 | -3.9 | x | x | x
COc1ccc(N2CCN(CC(=O)Nc3ccc(C)cc3)CC2)cc1 | -24 | -1.6 | x | x | x
Clc1nccnc1-c1ccccc1 | -7 | 0.8 | 4 | 7% | -27
Cc1cc2ccccc2n1CCNCc1c(C(=O)N2CCOCC2)nc2ccccn12 | -11 | -3.2 | x | -2% | x
O=C(N/N=C/c1ccco1)C1CCCC1 | -4 | 0.8 | x | x | x
CC(=O)Oc1cc2c(C(=O)NCCN3CCOCC3)c(C)oc2c2ccccc12 | 2 | -0.9 | -24 | 3% | 9
COC(=O)c1ccccc1NC(=O)C(C)Oc1ccccc1 (stereo not given) | 0 | x | 1 | 3% | -20
COc1cc([N+](=O)[O-])cc(/C=N/NC(=O)CSc2nnc(-c3ccccc3)n2C)c1O | -1 | x | x | -5% | x
CCCOC(=O)CC1C(=O)NCCN1Cc1ccc(F)cc1 (stereo not given) | -4 | -2.8 | -1 | x | -24 | Arbovirus inh repeat=0
O=C(NCc1cccc(C(F)(F)F)c1)N1CCN(S(=O)(=O)c2ccccc2F)CC1 | 1 | 0.3 | x | x | x
CCCc1n[nH]c2c1/C(=N/O)CC(c1ccccc1)C2 (stereo not given) | -10 | -7.4 | 5 | 3% | -35
CC(=O)N/C(=N\c1nc(C)cc(C)n1)Nc1ccc(Cl)cc1Cl | 4 | 0.5 | x | x | x
Cc1csc(NC(=O)c2ccoc2C)n1 | 0 | -9.0 | -3 | -10% | -115
CSCCC(NC(=O)c1ccc(Cl)cc1)C(=O)OCC(=O)Nc1cc(Cl)ccc1C#N (stereo not given) | -4 | 0.7 | 3 | -4% | -22
(list continues)
SMILES | Mtb bLac sens | RecA intein inh | Arbovirus inh | Mtb H37Rv | YopH PTP inh | others
CC(=O)c1ccc(OCc2cc(C(=O)N3CCC[C@H]3CO)no2)cc1 | -6 | -0.7 | x | x | x
COc1ccc(N2CCN(C(=O)c3ccc4c(c3)[nH]c(=S)n3c5ccccc5nc43)CC2)cc1 | -5 | 4.1 | -12 | -4% | x
CC(=O)Nc1ccc(NC(=O)CSc2nnc(-c3cc4ccccc4o3)n2C)cc1 | 0 | 1.2 | x | x | x
O=C(O)c1ccc(NC(=O)c2ccccc2NC(=O)c2cccc(Br)c2)cc1 | 3 | -36 | x | x | x
CC1CCN(C(C(=O)O)c2ccccc2)CC1 (stereo not given) | -4 | -0.8 | 3 | -5% | x
O=C(c1ccc2c(c1)OCO2)C1CCCN(C(=O)C2CCOCC2)C1 (stereo not given) | -5 | -2.0 | -3 | 5% | x
N#CC1c2ccccc2C=CN1C(=O)c1ccccc1 (stereo not given) | -6 | 2.3 | x | 4% | x
Cn1cc(-c2nnnn2-c2cccc(C(F)(F)F)c2)c(C(F)(F)F)n1 | -3 | -4.8 | 10 | -2% | -31
CC(C)COc1ccc(C2NC(=O)NC2=O)cc1 (stereo not given) | 5 | 1.5 | -4 | 6% | 2
